Cruzain inh Det: cruzain (T. cruzi) inhibition with detergent; P25779; purified cruzain, Z-FR-AMC fluorescence, 0.01% Triton; Potency, µM, for the others: max response, negative = inhibition, most hits filed as inhibitors; actives 0.43% (n = 200,000); AID 1478;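 note: plate controls were neutral wells for no effect and buffer without enzyme for full effect; nearly all actives have a fitted effect of over 40% in size; top concentration of the series not given in the record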
Target sequence (P25779 123-467 limits assumed): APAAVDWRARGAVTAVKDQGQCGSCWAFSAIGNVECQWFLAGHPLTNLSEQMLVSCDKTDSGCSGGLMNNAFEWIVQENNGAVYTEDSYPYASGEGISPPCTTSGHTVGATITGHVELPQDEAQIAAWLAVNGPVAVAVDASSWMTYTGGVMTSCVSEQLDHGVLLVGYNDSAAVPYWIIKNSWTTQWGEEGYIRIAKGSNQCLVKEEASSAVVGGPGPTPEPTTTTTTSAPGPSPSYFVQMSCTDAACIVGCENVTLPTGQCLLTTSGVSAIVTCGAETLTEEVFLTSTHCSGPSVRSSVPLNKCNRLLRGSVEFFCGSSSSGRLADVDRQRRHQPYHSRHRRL
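Enzyme 1.5 nM, Z-FR-AMC 2 uM, NaOAc 100 mM pH 5.5, DTT 5 mM, Triton X-100 0.01%; 15 min RT compound preincubation; kinetic ex360/em450, 60 s delta.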
MARV entry inh: Marburg virus entry inhibition | Potency, µM (doses to about 37.8 µM), inactives show at the top dose activity change, negative = inhibition, actives largely listed as inhibitors | Marburg virus pseudotyped entry inhibition, cell reporter; control for the full effect not named in the record; about a third of the inactives were read at about 46 µM | actives 1.8% (n = 300,000); active = well fitted inhibition curve with a large enough effect; inconclusive = small, poorly fitted or top-dose-only effect, or effect the other way; inactive = flat fitted curve, though single readings scatter; tested in HEK293 cells; about a fifth of its hits are not listed in these tables; note: % is set by controls: 0 for no effect and ±100 for the full control effect; luciferase read-out
Lassa entry inh: Lassa virus entry inhibition. actives 1.2% (n = 300,000). Potency, µM (highest dose often 37.9 µM), for the others: at the top dose activity change, negative = inhibition, actives largely listed as inhibitors. Lassa virus pseudotype entry inhibition, cell reporter; control for the full effect not named in the record. AID 540256; active means well fitted inhibition curve with a large enough effect; inconclusive means small, poorly fitted or top-dose-only effect, or effect the other way; inactive means flat fitted curve, though single readings scatter; tested in HEK293 cells; note: % is set by controls: 0 for no effect and ±100 for the full control effect; nearly all actives have a fitted effect of over 50% in size; luciferase read-out
RE007 growth inh: less growth of the S. pombe RE007 Vpr strain; actives 0.21% (n = 360,000); S. pombe RE007 Vpr strain, BacTiter-Glo ATP luminescence, 24 h; control for the full effect not named in the record; AID 651644; Potency, µM (doses to about 92.2 µM), without a hit: at the highest dose activity change, negative = less growth; active = well fitted falling curve with a large enough effect; inconclusive = small, poorly fitted or top-dose-only effect; inactive = no such curve, though single readings can be large or run the other way;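 note: % is set by controls: 0 for no effect and ±100 for the full control effect; nearly all actives have a fitted effect of over 50% in size; the assay follows cell death caused by Vpr and the record does not say whether a fall means rescue or toxicity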
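Fission yeast strain RE007, carrying one chromosomally integrated HIV-1 vpr copy, was seeded at OD 0.01 in PMG+AL medium with 23 nL pinned compound. After 24 h at 30 °C and 99% humidity, viability was read by BacTiter-Glo luminescence.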
Cruzain inh noDet: cruzain (T. cruzi) inhibition without detergent; AID 1476; Potency, µM, for the others: max response, negative = inhibition, usual class: inhibitors; actives 2.3% (n = 200,000); purified cruzain, Z-FR-AMC fluorescence, no detergent;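 note: plate controls were enzyme without inhibitor for no effect and buffer without enzyme for full effect; nearly all actives have a fitted effect of over 40% in size; top concentration of the series not given in the record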
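Detergent-free condition (0.00005% Triton X-100) in acetate buffer pH 5.5 with DTT. 1.5 nM enzyme and compound were pre-mixed 15 min, then 2 uM Z-FR-AMC substrate added; reaction progress from fluorescence change between first and third reads (60 s).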
2A StopGo: lowers the luciferase signal of an FMDV 2A StopGo reporter. Potency, µM (series often up to 57.9 µM), for the others: at the top dose signal change, negative = less light. actives 1.2% (n = 410,000). human cells with a luciferase reporter of 2A StopGo recoding; control for the full effect not named in the record; active = well fitted falling curve with a large enough effect; inconclusive = small, poorly fitted or top-dose-only effect; inactive = no such curve, though single readings can be large or run the other way; tested in HEK293T cells; note: % is set by controls: 0 for no effect and ±100 for the full control effect; nearly all actives have a fitted effect of over 45% in size; luciferase light after 4 h
SARS PLpro yeast: SARS-CoV PLP inhibition in yeast; Potency, µM (titrated, usually from 32.9 µM), for the others: at the highest dose activity, positive = growth rescue; S. cerevisiae expressing SARS-CoV PLpro, growth rescue; control for the full effect not named in the record; actives 0.19% (n = 330,000); active means well fitted rising curve with a large enough effect; inconclusive means small, poorly fitted or top-dose-only effect; inactive means no such curve, though single readings can be large or run the other way; note: 0% is about no effect; nearly all actives have a fitted effect of over 55% in size; growth read by luminescence after 48 h
NS1 function inh: influenza NS1 inhibition | S. cerevisiae slowed by influenza A NS1, growth recovery by OD600 | Potency, µM (titrated, usually from 46.1 µM), for inactives: at the top dose activity, positive = more growth | actives 0.4% (n = 270,000); active means well fitted rising curve with a large enough effect; inconclusive means small, poorly fitted or top-dose-only effect; inactive means no such curve, though single readings can be large or run the other way; note: nearly all actives have a fitted effect of over 50% in size
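Recovery from NS1-induced slow growth read by OD600 in budding yeast switched to galactose assay medium (pH 6.0, -URA) at 1:100 dilution. Compound 23 nl per well; the matching strain lacking NS1 serves as control.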
Starred values were filed as active, the others as inactive; ? = inconclusive; nt = not tested or not shown; & = joins results of further samples; [ ] = remark or other dose. Unless noted, calls come from the whole dose curve; as a rule, active = well fitted curve in the direction sought with a large enough effect; inconclusive = small, poorly fitted or top-dose-only effect, or another doubt; inactive = no such curve, though single readings can be large; an effect the other way counts as inactive or inconclusive. Potency is the fitted concentration of half-maximal effect.

SMILES | Cruzain inh Det | MARV entry inh | Lassa entry inh | RE007 growth inh | Cruzain inh noDet | 2A StopGo | SARS PLpro yeast | NS1 function inh
COc1ccc(CC(C)N2CCN(c3cccc(C(F)(F)F)c3)CC2)cc1OC (centres undefined) | -15% | -20% | ? | -13% | -5% | nt | 4% | -1%
CC1(C)Oc2ccc3ccc(=O)oc3c2/C(=C/NCCN/C=C2\C(=O)C(C)(C)Oc3ccc4ccc(=O)oc4c32)C1=O | -7.3% | nt | nt | nt | ? | nt | 6% | 1%
CCC1CCCCN1CCCNC(=O)c1ccc2c(c1)N(Cc1ccc(F)cc1)C(=O)c1ccccc1S2=O (centres undefined) | nt | nt | nt | 4% | nt | -21% | 22% | ?
Cc1cccc(Cl)c1OCCCCn1ccnc1 | 3.2% | 1% | -9% | -16% | 1% | -15% | -2% | -20%
Cc1ccc(CNC(=O)c2cc3cc(C)ccc3n2C)cc1 | -0.7% | ? | ? | nt | ? | 0% | nt | nt
S=C(NCCCNC(=S)Nc1ccccc1)Nc1ccccc1 | -12% | -1% | ? | -1% | -8% | 15% | -3% | -1%
CCc1ccc2[nH]c3nc(SCC(=O)NCC4CCCO4)nnc3c2c1 (centres undefined) | nt | ? | nt | -5% | nt | -23% | 2% | 15%
CCOC(=O)CC1COCCN1C(=O)c1cc(COc2ccc(F)cc2Cl)on1 (centres undefined) | nt | -5% | -16% | -3% | nt | 14% | -5% | -25%
COC(=O)CCC(=O)N1CCCC(CO)(Cc2ccccc2F)C1 (centres undefined) | nt | nt | nt | 8% | nt | 2% | 3% | -7%
CCN(CC)C(=O)CSc1nc2sc(C)c(C)c2c(=O)[nH]1 | -0.2% | 4% | 6% | 21% | -9% | -10% | -1% | -5%
CCc1nc(Cl)c(C#N)c2c1CSC(C)(C)C2 | -1.4% | 6% | nt | 11% | -3% | -29% | 1% | -14%
Cc1nnc(SCC(=O)N2CCC(Cc3ccccc3)CC2)n(N)c1=O | 1.2% | -1%&-1% | -3% | 14% | 5% | -13% | 9% | -1%
CCOC(=O)c1ccccc1NC(=O)COC(=O)CC(C)(C)CC1=NS(=O)(=O)c2ccccc2N1 | -0.7% | nt | ? | nt | ? | ? | nt | nt
O=C(/C=C/c1ccc(Br)o1)NC(c1ccccc1)c1ccccc1 | -9.4% | 0% | ? | 14% | ? | -10% | -37% | 0%
O=C(COC(=O)c1cn(-c2ccccc2)nc1-c1ccccc1)Nc1ncc(Cl)cc1Cl | nt | -11%[46.1 µM] | -9% | 11% | nt | -25% | 3% | -33%
CCc1n[nH]c(=S)n1/N=C/c1c(C)nn(-c2ccccc2)c1Cl | nt | -24% | -1% | 11% | nt | -6% | 2% | nt
Cc1[nH]c(=O)[nH]c(=O)c1S(=O)(=O)NCCOC12CC3CC(CC(C3)C1)C2 | 2.1% | ? | -3% | -18% | 1% | -11% | -12% | 0%
CCC1CCCCN1C(=O)c1nn(-c2ccc(C)cc2)c(=O)c2c1c1ccccc1n2C (centres undefined) | -0.8% | 1%[46.1 µM] | 22%[46.1 µM] | nt | -1% | ? | nt | nt
Nc1nn(-c2cccc(F)n2)cc1-c1ccccc1 | nt | ? | ? | -4% | nt | -37% | -1% | 0%
CCCCNC(=O)COC(=O)c1ccc(Cl)c(S(N)(=O)=O)c1 | 5.9% | 9% | -12% | 10% | 4% | -26% | 15% | 8%
COc1ccc(N2CCN(C(=S)Nc3ccc(F)cc3)CC2)cc1 | nt | 15% | ? | 5% | nt | -1% | 0% | 1%
CCOc1ccc(NC2SC(=O)N(Cc3ccccc3)C2=O)cc1 (centres undefined) | -8.0% | nt | -25%[46.1 µM] | nt | -7% | -2% | nt | nt
CC(=O)Nc1ccc2c(c1)ncn2-c1ccc(C)cc1 | nt | 2% | ? | 0% | nt | 68%[activator] | 0% | -3%
Cc1csc(SCC(=O)Nc2ccccc2[N+](=O)[O-])n1 | nt | ? | 0% | -15% | nt | 47%[activator] | 0% | nt
COc1ccc(Cn2c(O)c(C=Nc3ccc(O)cc3)c3ccccc3c2=O)cc1 | -3.0% | ? | ? | -12% | 25µM* | 0% | -8% | ?
O=C(NCCn1c(-c2ccncc2)nc2ccccc21)[C@H]1CCCN1c1nc(CN2CCCCC2)cs1 | nt | nt | nt | -25% | nt | 0% | -5% | -1%
O=C(Nc1cccc(Cl)c1)c1ccc(S(=O)(=O)NCC2CCCO2)cc1 (centres undefined) | nt | -4%[46.1 µM] | ? | 14% | nt | 13% | -11% | -4%
Clc1cccc(Cl)c1Cn1ccc(C2CC2)n1 | nt | 15%[46.1 µM] | 25% | 13% | nt | 31%[activator] | 7% | nt
O=c1[nH]c(SCc2ccc(F)cc2)nc2c1CCCC2 | -0.2% | -24%[46.1 µM] | -3%[46.1 µM] | nt | -1% | -7% | nt | nt
COc1ccc(CCN2CC(C(=O)Nc3cc(F)ccc3F)CC2=O)cc1OC (centres undefined) | nt | -3%[46.1 µM] | 7% | 8% | nt | 4% | 2% | nt
Cc1cc(C)cc(OCC(=O)Nc2ccc3c4c(cccc24)CC3)c1 | 1.5% | 34% | -10% | 3% | ? | -6% | -2% | 2%
O=c1c2cc(Cl)cc(Cl)c2nc2n1CCC2 | nt | 15%[46.1 µM] | nt | 3% | nt | 3% | 5% | nt
CCOc1ccc(/C=c2\sc3nc(-c4ccco4)nn3c2=O)cc1OCC | -3.3% | 3% | 4% | -20% | ? | -7% | 2% | ?
CN1/C(=C\C=C\C2=[N+](C)c3ccc4ccccc4c3C2(C)C)C(C)(C)c2ccccc21 | -17% | 3% | nt | nt | -28% | nt | -31% | -127%
O=C(c1cnn(C(=O)CN2CCCC2=O)c1)c1ccccc1O | nt | ? | 12% | -12% | nt | -11% | -11% | nt
COc1ccc(C(=O)Nc2nnc(-c3ccc(F)cc3)s2)c(OC)c1 | nt | ? | 30%[46.1 µM] | 7% | nt | -8% | 3% | 0%
O=C(Nc1ccccc1C(=O)NCC1CCCO1)c1ccccc1 (centres undefined) | 1.4% | ? | -14% | -10% | 3% | 5% | -1% | -1%
Cc1ccc(Cn2c(=N)c(C(=O)NCC3CCCO3)cc3c(=O)n4cccc(C)c4nc32)cc1 (centres undefined) | nt | ? | -10%[46.1 µM] | -2% | nt | 7% | -2% | 4%
Cc1cc(C)c2c(CN3CCN(Cc4ccc5c(c4)OCO5)CC3)cc(=O)oc2c1 | 0.5% | -11% | -3% | -6% | 5% | -18% | 2% | -1%
CC1(C)CC(=O)C(/C=N/c2ncccc2C(=O)O)=C(O)C1 | -6.5% | 4% | 8% | -10%[3.69 µM] | -16% | -17% | 10% | 2%
CCCCNC(=S)NCC(c1ccccc1)c1c[nH]c2ccccc12 (centres undefined) | nt | ? | ? | 5% | nt | 4% | -6% | 3%
Cc1cccc(-n2c(C)cc(/C=N\NC(=O)c3ccco3)c2C)c1 | nt | 5% | -28% | 3% | nt | 23% | 0% | -2%
O=C(NCC(=O)N1CCCC1C(=O)O)OC1CCCCC1 (centres undefined) | 2.7% | 1%[46.1 µM] | 4% | -1% | -8% | 0% | -5% | -1%
CCN(CC)S(=O)(=O)c1ccc2c(c1)nc(CCC(=O)Nc1ccc3c(c1)OCO3)n2CC | -0.1% | ? | 16% | nt | 1% | -9% | -1% | -12%
Cc1cc(C(=O)NC2CCCc3c2cnn3-c2ccc(C)c(C)c2)no1 (centres undefined) | nt | nt | nt | -16% | nt | ? | -4% | -46%
CCOc1ccc(N(CC(=O)Nc2cccnc2)S(C)(=O)=O)cc1 | nt | -16%[46.1 µM] | -5%[46.1 µM] | -8% | nt | -14% | 1% | 5%
Cc1cccc(NC(=O)CCCn2cc([N+](=O)[O-])cn2)n1 | nt | -11%[46.1 µM] | 2%[46.1 µM] | -9% | nt | -17% | -5% | nt
COC(=O)c1ccc(CSc2nc(-c3ccco3)cc(C(F)(F)F)n2)o1 | -19% | ? | ? | 3% | 32% | ? | -3% | -41%
C=CCC(C(=O)NC(C)c1ccccc1)C(=O)NC(C)c1ccccc1 (centres undefined) | nt | ? | 5%[46.1 µM] | 12% | nt | -6% | 1% | -8%
COc1ccc(N2C(=O)CC(NNC(=O)c3ccco3)C2=O)cc1 (centres undefined) | nt | ? | 0% | 1% | nt | -3% | -1% | nt
N/C(=N\OC(=O)c1ccc(Cl)cc1Cl)c1ccncc1 | nt | nt | nt | -10% | nt | 62%[activator] | 1% | 4%
Cc1ccc(Nc2nc(N)nc(CCl)n2)c(C)c1 | nt | nt | nt | -6% | nt | 16% | 1% | 5%
COc1cccc(N2CCN(C3CC(=O)N(c4cccc(Cl)c4)C3=O)CC2)c1 (centres undefined) | 2.5% | 16% | ? | ? | 22% | -9% | -13% | 15%
COc1ccc(CNC(=O)c2cc(-c3cccs3)nc3ccccc23)c(OC)c1 | -11% | -15%[46.1 µM] | -17%[46.1 µM] | nt | -2% | ? | nt | nt
O=C(Cc1ccccc1[N+](=O)[O-])N1CCc2ccccc2C1 | nt | ? | 8% | 12% | nt | 48%[activator] | -2% | -5%
Cc1ccc(C(=O)O/N=C2\CC3CCC2(C)C3(C)C)cc1 (centres undefined) | -5.1% | ? | -14% | -19% | -4% | -9% | -85% | -31%
OC(COc1ccc(F)cc1Cl)CN1CCc2ccccc2C1 (centres undefined) | nt | ? | 3%[46.1 µM] | -22% | nt | 27% | -1% | -16%
Cc1cc(=O)cc(C)n1-c1ccccc1N1CCOCC1 | 3.3% | 4% | 12% | -16% | 9% | -10% | -2% | 0%
Cc1cccc(NC(=O)c2ccc(S(=O)(=O)N(C)C)cc2)n1 | 3.4% | 5%[46.1 µM] | ? | 0% | 3% | -5% | -8% | -3%

Rewritten with tabs: entries from further up.
mol	Cruzain inh Det	MARV entry inh	Lassa entry inh	RE007 growth inh	Cruzain inh noDet	2A StopGo	SARS PLpro yeast	NS1 function inh
COc1ccc(N2C(=O)CC(NNC(=O)c3ccco3)C2=O)cc1 (centres undefined)	nt	?	0%	1%	nt	-3%	-1%	nt
N/C(=N\OC(=O)c1ccc(Cl)cc1Cl)c1ccncc1	nt	nt	nt	-10%	nt	62%[activator]	1%	4%
